Screening results as filed in PubChem BioAssay.
ClpP mod = qHTS Assay for Activators of ClpP; purified B. subtilis ClpP, FRET peptide cleavage, 20 min; 340,000 tested, 1.9% active; Potency, µM (doses to about 57.5 µM), inactives show at the highest dose activity change, negative = active; active = well fitted falling curve with a large enough effect; inconclusive = small, poorly fitted or top-dose-only effect; inactive = no such curve, though single readings can be large or run the other way; note: the source files actives as falling curves though it sought activators and does not explain the sign; nearly all actives have a fitted effect of over 65% in size; many hits overshoot -100%
Target sequence (P80244 whole entry, looked up): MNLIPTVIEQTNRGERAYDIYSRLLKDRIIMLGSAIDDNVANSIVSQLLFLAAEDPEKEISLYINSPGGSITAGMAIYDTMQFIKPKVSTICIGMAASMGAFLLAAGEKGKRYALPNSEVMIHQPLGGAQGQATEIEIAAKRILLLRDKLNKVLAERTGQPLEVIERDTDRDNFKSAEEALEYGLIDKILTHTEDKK
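Buffer: 100 mM Tris/HCl pH8, 100 mM KCl, 0.05% low protease BSA, 2.5% glycerol, 0.01% Tween-20. ClpP 10 microg/mL final; 20 min RT; delta FRET normalized to ADEP and DMSO controls.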
* hit, by the source's call; ? = inconclusive. Potency is the fitted concentration of half-maximal effect.

SMILES | ClpP mod
Cc1ccc(N(CC(=O)Nc2cccc(F)c2)S(=O)(=O)c2cccs2)cc1 | -2.7%
OC(c1ccccc1)(c1ccccc1)C1CCN(CCCOc2ccccc2Cl)CC1 | 0.6%
N#C/C(=C\c1cccc(F)c1)c1nc(-c2cc3ccccc3oc2=O)cs1 | -6.2%
Cc1nc2nc(C)c(CCC(=O)NCc3ccccc3)c(C)n2n1 | 2.1%
O=C(Cn1nc(Cc2cccnc2)c2ccccc2c1=O)N1CCN(c2ccccc2F)CC1 | -4.6%
CN(CCCc1cnc[nH]1)C(=S)NCCCN(Cc1ccc(Cl)cc1)c1ccc(Br)cn1 | -23.4%
COc1cccc(CC(=O)Nc2c(C(=O)N3CCN(c4ccccc4)CC3)oc3ccccc23)c1 | -15.6%
CCOc1ccc(CNC(=O)CCS(=O)(=O)c2cc3c4c(c2)CCN4C(=O)CC3)cc1OC | -0.6%
Cc1ccc2c(n1)sc1c(=O)n(-c3cccc(C(F)(F)F)c3)nnc12 | -1.0%
Cc1cccc(-c2nc3cc(NC(=O)Cc4ccc(Cl)cc4)ccc3o2)c1 | ?
COc1cccc(CNC(=O)[C@@H]2CCCN2C(=O)[C@H]2CCCCN2C(=O)OC(C)(C)C)c1 | 1.1%
CCc1ccc(S(=O)(=O)c2nnn3c2nc(N2CCN(c4ccccc4)CC2)c2cc(Cl)ccc23)cc1 | 0.7%
COc1ccc(OC)c(Nc2ncnc3c2cnn3-c2ccc(C)cc2)c1 | 55.5%
COc1cccc(OC)c1C(=O)Nc1ccc2c(c1)N(C(C)=O)CCC2 | 13.4%
Cc1cccc(C)c1NC(=O)C(NS(=O)(=O)c1ccc2c(c1)CCC(=O)N2)c1ccccc1 (centres undefined) | -0.1%
CCc1ccc(-c2nn(CC(=O)NC3CCCC3)c3c2cnc2ccc(C)cc23)cc1 | -8.9%
CCCC(=O)N1CC(=O)Nc2ccc(Cl)cc2C1c1ccc(F)cc1 (centres undefined) | -3.5%
CCCC(=O)Nc1ccc2c(c1)nc(CN1CCN(C(=O)OCC)CC1)n2C(C)C | -2.8%
COc1ccccc1Cn1c(SCC(=O)C(C)(C)C)nc2ccccc2c1=O | 1.2%
COC(=O)[C@@]12C[C@@H](CC(=O)N3CCN(C(=O)C4CC4)CC3)C(=O)N(Cc3ccc4c(c3)OCO4)C1=CCC(C)(C)C2 | -0.8%
CCOc1ccc(NC(=O)CSc2nc3c(oc4ccccc43)c(=O)n2CCOC)cc1 | -4.6%
COc1cccc(/C=C/C(=O)Nc2ccc3nc(N4CCN(C)CC4)cc(C)c3c2)c1OC | -2.1%
COC(=O)CC1Oc2ccccc2-n2cc(-c3ccc(C)cc3)nc21 (centres undefined) | -1.5%
Cc1cccc(C)c1Nc1c(-c2cccs2)nc2ncccn12 | -0.4%
CCOC(=O)c1cccc(NC(=O)c2cnc3sc(N4CCOCC4)nn3c2=O)c1 | -6.1%
The list continues:
SMILES | ClpP mod
Cc1ccc(-c2nc(C)c(CCNC(=O)C(=O)Nc3cc(C)ccc3C)s2)cc1 | -2.2%
COc1ccccc1N1CCN(c2ncnc3c2cnn3C)CC1 | 0.8%
CCOc1ccc(C2CC(=O)c3c([nH]c(C(=O)OCCOc4ccccc4)c3C)C2)cc1 (centres undefined) | -3.3%
CCc1cccc(NC(=O)c2cnc(SC)nc2-c2ccccc2)c1 | -16.1%
CCC(=O)N1CCc2cc(S(=O)(=O)CCC(=O)Nc3ccc(OC(F)(F)F)cc3)ccc21 | 0.1%
CCS(=O)(=O)c1ncc(Cl)c(C(=O)N2CCN(c3cccc(Cl)c3)CC2)n1 | 1.4%
Cc1ccc2occ(CC(=O)Nc3c(C)cccc3C)c2c1 | 0.6%
Cc1cc(NCc2ccc(Cl)cc2)n2cnnc2n1 | -4.3%
Cc1ccc(S(=O)(=O)c2cn(Cc3ccccc3)c3cc(N4CCCC4)c(F)cc3c2=O)cc1C | 12.6µM*
CC(C)NC(=O)CN1CCN(C(c2cc3ccccc3o2)c2nnnn2C(C)(C)C)CC1 (centres undefined) | 0.2%
CCCCN(CCCC)C(=O)CN(C)S(=O)(=O)c1ccc2c(c1)c(=O)n(C)c(=O)n2C | -5.7%
O=c1[nH]c(=O)n([C@H]2C[C@@H](O)[C@@H](CO)O2)cc1F | -0.1%
CC1=C(C(=O)OCC2CCCCC2)C(c2ccccc2F)CC(=O)N1 (centres undefined) | 2.7%
Cc1cc(NC(=O)NCc2ccc3c(c2)CCN3C(=O)c2ccccc2)ccc1Br | 0.9%
CCN(c1ccc(C)cc1C)S(=O)(=O)c1nnc(NC(=O)c2ccc(F)cc2)s1 | -12.0%
CC(=O)N1CCc2cc(Br)cc(S(=O)(=O)CCC(=O)NCc3ccc(F)cc3)c21 | -1.2%
CCOC(=O)N1CCN(C(=O)CN(c2ccc(C)cc2C)S(=O)(=O)c2ccccc2)CC1 | 1.2%
COc1cccc(N2CCN(C(=O)C3CCC(CNS(=O)(=O)c4ccc(Br)s4)CC3)CC2)c1 (centres undefined) | -2.3%
Cc1sc2ncn(CC(=O)N3CCN(c4ccc(F)cc4)CC3)c(=O)c2c1S(=O)(=O)N1CCCCC1 | 1.5%
Cc1oc2ncn(C)c(=O)c2c1C(=O)NCc1ccc(Cl)cc1 | 0.0%
COc1cc(NC(=O)c2ccc(C)c(Cl)c2)ccc1NC(=O)c1cc2ccccc2o1 | 0.6%
Cn1c(=O)c2c(nc(N3CCOCC3)n2Cc2ccccc2Cl)n(C)c1=O | -1.9%
O=C(COC(=O)c1ccccc1OCCOc1ccccc1)Nc1ccc(Br)cc1 | -6.0%
Cc1ccc(-c2ccc(=O)n(CC(=O)NC(C)c3ccccc3)n2)cc1 (centres undefined) | -27.0%
COc1cc(OC)c(NC(=O)C2=C(C)C(=O)OC23CCCCC3)cc1Cl | 1.2%
Going on with the list.
SMILES | ClpP mod
O=C(c1ccc(F)cc1)n1nc(-c2ccccc2)nc1NCc1ccco1 | 2.4%
CC(C)c1ccc(NC(=O)CN2C=NS(=O)(=O)c3ccccc32)cc1 | -0.1%
O=C(c1ccc2c(c1)N(Cc1ccccc1F)C(=O)c1ccccc1S2=O)N1CCC(Cc2ccccc2)CC1 (centres undefined) | -2.3%
O=C(NCc1ccccc1Br)c1ccc2nc(N3CCCCC3)sc2c1 | -1.4%
COc1ccccc1N1CCN(C(=O)CSc2nc3ccccc3nc2Cc2ccccc2)CC1 | 0.5%
COc1ccc(-c2cn3c(n2)sc2cc(C(=O)Nc4ccc(C)cc4C)ccc23)cc1 | 17.9%
CN1[C@@H](Cc2ccccc2)COc2cc(N3CCSCC3)ccc2S1(=O)=O | ?
O=c1c(N2CCN(c3ccc(F)cc3)CC2)csc2ccc(F)cc12 | -21.4%
CCOc1nc(C#N)nc(N(c2ccccc2)c2ccccc2)n1 | 0.0%
O=C(NCCc1csc(-c2ccc(C(F)(F)F)cc2)n1)c1ccccc1Cl | -18.5%
Cc1ccc(NC(=O)c2ccc3c(c2)NC(=O)c2ccccc2S3)cc1 | 126.7%
CCC(=O)N1CCc2cc(Br)cc(S(=O)(=O)CCC(=O)N3CCN(c4cccc(C(F)(F)F)c4)CC3)c21 | -1.1%
Cc1ccc(S(=O)(=O)C(CNC(=O)C(=O)NCCc2ccccc2)c2ccco2)cc1 (centres undefined) | 0.9%
COc1ccc(CCNC(=O)c2ccc3c(c2)CCN3S(C)(=O)=O)cc1OC | 2.4%
Cc1ccc(-c2nc(NC(=O)CSc3ncnc4sc5c(c34)CCC(C)C5)ns2)cc1 (centres undefined) | -0.7%
Cc1ccc2c(c1)-c1cc(C)nn1C(c1cc(Br)ccc1O)N2 (centres undefined) | 4.6%
Cc1ccc(S(=O)(=O)N2[C@@H](Cc3ccccc3)CO[C@H]2CC(=O)OCc2ccccc2)cc1 | -0.9%
OC(Br)C(O)C(O)N1CCCc2ccccc21 (centres undefined) | -10.3%
COc1ccc(/C=C/c2ccc3ccccc3[n+]2C)c(OC)c1OC | 0.9%
CCOc1ccc(CCNC(=O)C2Cc3ccccc3N2C(=O)CC)cc1 (centres undefined) | -1.2%
COc1ccc(C(=O)Nc2cc(S(=O)(=O)c3ccc(Cl)cc3)c(O)c(C)c2C)cc1 | 46.8%
CCOc1ccc(CNC(=O)c2ccc3c(c2)nc2n3CCC(C)C2)cc1OC (centres undefined) | 0.5%
Cc1ccc(Cn2c(C)c(CNCC(C)c3ccccc3)c(C(=O)O)c2C)cc1 (centres undefined) | 0.2%
COc1ccccc1C(=O)Nc1nnc2n1CCS2 | 2.3%
Nc1c(C(=O)NCc2ccc(Cl)cc2Cl)nnn1Cc1ccc(Br)cc1 | -0.2%
Following part.
SMILES | ClpP mod
CCOc1ccc(-n2c(SC(C)C(=O)OC)nc3c([nH]c4ccccc43)c2=O)cc1 (centres undefined) | -17.7%
COC(=O)c1c(NC(=O)CCCOc2ccccc2C)sc2c1CCC2 | ?
Cc1ccc(O)c(NC(=O)c2cc(-c3ccccc3O)no2)c1 | -0.3%
CCOc1ccc(-c2n[nH]c3c2C(c2ccccc2OC)N(c2ccc(Br)cc2)C3=O)cc1 (centres undefined) | 0.7%
O=C1c2[nH]nc(-c3ccccc3O)c2C(c2ccccc2F)N1Cc1cccnc1 (centres undefined) | 1.8%
CC(C)c1ccc(NC(=O)C(NS(=O)(=O)c2ccc3c(c2)CCC(=O)N3)c2ccccc2)cc1 (centres undefined) | -1.3%
COc1ccc(C)cc1NS(=O)(=O)c1c(C)nc2sc(C)cn2c1=O | -3.3%
O=C(Nc1cccc(NC(=O)c2ccccc2Cl)c1)c1cccc(Br)c1 | -5.2%
Cc1ccc(C)c(Cn2c(C(C)NC(=O)c3ccc(F)cc3)nc3ccccc32)c1 (centres undefined) | 3.0%
CN(C)c1ccc(CNc2nc(-c3ccco3)nn2S(C)(=O)=O)cc1 | -1.4%
COc1ccc(Nc2c3c(nc4nncn24)CCC3)cc1OC | -2.2%
CCOc1ccc(NC(=O)C(NS(=O)(=O)c2cccc3nsnc23)c2ccccc2)cc1 (centres undefined) | 0.6%
Cc1cc(-n2c(C)nc3ccccc3c2=O)ccc1NC(=O)c1cccc([N+](=O)[O-])c1C | 2.0%
CCc1ccc(OCc2nc(-c3ccc(OC)cc3)no2)c(Br)c1 | -1.3%
CCOC(=O)c1noc2ncn(CC(=O)Nc3cc(Cl)ccc3OC)c(=O)c12 | 2.2%
COc1ccc(NC(=O)c2oc3ccccc3c2NC(=O)c2cc(=O)c3ccccc3o2)cc1 | -0.3%
COc1cc(OC)cc(C2=Cc3ccccc3C(CC(=O)c3ccco3)N2c2ccc(-c3ccc(C(N)=O)cc3)cc2)c1 (centres undefined) | -12.6%
COc1ccc(-c2nnc3ccc(SC(C)C)nn23)cc1OC | -1.5%
CCOC(=O)c1cc(C)n(CC2CCC(C(=O)Nc3cccc(Cl)c3)CC2)c1C (centres undefined) | -0.4%
Cn1cc(S(=O)(=O)N2CCCCCC2)cc1C(=O)NCc1ccc(Cl)cc1 | -0.8%
CCCSc1ncc(Cl)c(C(=O)Nc2nc3ccc(C)cc3s2)n1 | 1.9%
CCc1ccccc1CC1CN(Cc2ccccc2)Cc2ccccc2N1c1ccc(OC)cc1 (centres undefined) | ?
CC(=O)C[C@H]1c2cc(F)cc(F)c2S(=O)(=O)N1C1CCN(Cc2ccccc2)CC1 | -0.3%
CCOc1ccc(NC(=O)Cn2cc(C(=O)c3ccc(C)cc3)c(=O)c3cc4c(cc32)OCCO4)cc1 | 2.7%
COc1ccccc1N(CC(=O)Nc1ccccc1C(F)(F)F)S(=O)(=O)c1ccc(C)cc1 | 0.1%

Another view of part of the listing above.
Molecule	ClpP mod
CCOc1nc(C#N)nc(N(c2ccccc2)c2ccccc2)n1	0.0%
O=C(NCCc1csc(-c2ccc(C(F)(F)F)cc2)n1)c1ccccc1Cl	-18.5%

Next section
SMILES | ClpP mod
CC(C)(C)NC(=O)c1oc2ccccc2c1NC(=O)c1ccc(F)cc1 | -5.4%
CCC(c1nc2ccccc2[nH]1)n1c(=O)c(-c2ccco2)nc2ccccc21 (centres undefined) | 4.2%
COC(=O)CN1C(=O)C(O)(c2c(C)[nH]c3ccccc23)c2ccccc21 (centres undefined) | -2.2%
CCC(c1nc2ccccc2[nH]1)n1c(-c2ccnc(Cl)c2)nc2ccccc21 (centres undefined) | -12.0%
Cc1ccc(N2C(=O)CSC23C(=O)Nc2ccccc23)cc1F (centres undefined) | 0.6%
COc1cc(NC(=O)C2CCN(S(=O)(=O)c3ccc4c(c3)CCCC(=O)N4)CC2)cc(OC)c1 | -2.9%
Cn1cc(C(=O)NCc2ccccc2)c(=O)c2cc(S(=O)(=O)N3CCOCC3)ccc21 | -0.8%

Entries shown so far containing a furan ring, fused or not (13):
SMILES | ClpP mod
COc1cccc(CC(=O)Nc2c(C(=O)N3CCN(c4ccccc4)CC3)oc3ccccc23)c1 | -15.6%
CCOc1ccc(NC(=O)CSc2nc3c(oc4ccccc43)c(=O)n2CCOC)cc1 | -4.6%
Cc1ccc2occ(CC(=O)Nc3c(C)cccc3C)c2c1 | 0.6%
CC(C)NC(=O)CN1CCN(C(c2cc3ccccc3o2)c2nnnn2C(C)(C)C)CC1 (centres undefined) | 0.2%
Cc1oc2ncn(C)c(=O)c2c1C(=O)NCc1ccc(Cl)cc1 | 0.0%
COc1cc(NC(=O)c2ccc(C)c(Cl)c2)ccc1NC(=O)c1cc2ccccc2o1 | 0.6%
O=C(c1ccc(F)cc1)n1nc(-c2ccccc2)nc1NCc1ccco1 | 2.4%
Cc1ccc(S(=O)(=O)C(CNC(=O)C(=O)NCCc2ccccc2)c2ccco2)cc1 (centres undefined) | 0.9%
CN(C)c1ccc(CNc2nc(-c3ccco3)nn2S(C)(=O)=O)cc1 | -1.4%
COc1ccc(NC(=O)c2oc3ccccc3c2NC(=O)c2cc(=O)c3ccccc3o2)cc1 | -0.3%
COc1cc(OC)cc(C2=Cc3ccccc3C(CC(=O)c3ccco3)N2c2ccc(-c3ccc(C(N)=O)cc3)cc2)c1 (centres undefined) | -12.6%
CC(C)(C)NC(=O)c1oc2ccccc2c1NC(=O)c1ccc(F)cc1 | -5.4%
CCC(c1nc2ccccc2[nH]1)n1c(=O)c(-c2ccco2)nc2ccccc21 (centres undefined) | 4.2%

Not all compounds are listed. The share of hits here may be higher or lower than overall.
